Source: PubChem (National Center for Advancing Translational Sciences (NCATS))
PINK1 expr mod – changes PINK1 expression | PINK1 immunofluorescence, high-content cytometry, 24 h | Potency, µM (series often up to 76.6 µM), for the others: at the highest dose activation (PINK1 increase), most hits filed as activators | 410,000 compounds, 0.2% hits | AID 624263; active = well fitted activation curve with a large enough effect; inconclusive = small, poorly fitted or top-dose-only effect; inactive = flat fitted curve, though single readings scatter; cell line not stated here;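 also: potency is read from the fitted curve at half-maximal effect; % of control where 0% means no effect; nearly all actives have a fitted effect of over 65% in size; a mitochondrial uncoupler was the plate control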
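Stable cell line treated 24 h with compounds at 5 concentrations (CCCP controls), then fixed and immunostained for PINK1 plus nuclear and cell stains; PINK1 immunofluorescence quantified by laser-scanning microplate cytometry.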
Six1-Eya2 inh – inhibitors of human Six1/Eya2 interaction | 360,000 compounds, 0.56% hits | activity change, % (no concentration beside the values) | AlphaScreen GST-Six1/His-Eya2 binding, biochemical; stronger effect = lower value; control for the full effect not named in the record | AID 651725; in the data active = activity change below about -65%; inconclusive = about -30% to -65%; inactive = above about -30%; also: % is scaled to controls: 0 for no effect and ±100 for the full control effect
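Compounds are tested against tagged Six1 and Eya2 proteins bridged by glutathione donor and nickel acceptor beads; after a one-hour incubation at 37 °C without light, AlphaScreen emission is recorded.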
D2 agonist – human D2 receptor agonism in beta-arrestin assay; P14416; DiscoveRx PathHunter D2 beta-arrestin, luminescence, 90 min; 100% = 57 uM dopamine signal; activation, % (test concentration not listed); 360,000 compounds, 0.084% hits; in the data active = activation above about 40%; inconclusive = about 15% to 40%; inactive = below about 15%; also: compound concentration not given in the record; the text of the record calls up to 30% inactive
Target sequence (P14416 whole entry, looked up): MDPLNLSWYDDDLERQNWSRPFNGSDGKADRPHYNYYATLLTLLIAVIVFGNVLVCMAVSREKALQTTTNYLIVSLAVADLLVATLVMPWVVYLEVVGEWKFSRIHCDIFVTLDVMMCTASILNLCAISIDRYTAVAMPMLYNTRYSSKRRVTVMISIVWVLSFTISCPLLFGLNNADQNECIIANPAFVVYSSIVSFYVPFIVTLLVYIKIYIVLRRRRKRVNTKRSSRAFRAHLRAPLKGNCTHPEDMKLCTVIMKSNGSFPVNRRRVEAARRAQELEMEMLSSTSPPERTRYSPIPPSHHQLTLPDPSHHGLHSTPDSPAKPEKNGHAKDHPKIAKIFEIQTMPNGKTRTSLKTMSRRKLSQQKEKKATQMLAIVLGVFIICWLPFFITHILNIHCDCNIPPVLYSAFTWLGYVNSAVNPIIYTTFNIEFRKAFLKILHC
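DiscoveRx PathHunter D2 beta-arrestin cells (2,100/well) attached overnight, then compound-stimulated 90 min at 37 C in HBSS/10 mM HEPES/0.1% Tween-20 buffer; beta-galactosidase complementation read by luminescence after 1 h at ambient temperature. Dopamine 57 uM final (EC100) as control.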
TRPML1 blocker – inhibitors of human TRPML1 channel; Q9GZU1; TRPML1-inducible cells, Ca2+ dye fluorescence, FDSS; stronger effect = lower value; inhibition of EC80 agonist-evoked calcium signal; activity change, negative = inhibition, % (no concentration beside the values); 390,000 compounds, 0.02% hits; AID 624415; in the data active means activity change below about -50%; inconclusive means about -30% to -50%; inactive means above about -30%;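 also: stimulus is agonist 54-4 at its EC80 concentration; % is scaled to controls: 0 for no effect and ±100 for the full control effect; compound concentration not given in the record; the text of the record puts the active cut at -80%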
Target sequence (Q9GZU1 whole entry, looked up): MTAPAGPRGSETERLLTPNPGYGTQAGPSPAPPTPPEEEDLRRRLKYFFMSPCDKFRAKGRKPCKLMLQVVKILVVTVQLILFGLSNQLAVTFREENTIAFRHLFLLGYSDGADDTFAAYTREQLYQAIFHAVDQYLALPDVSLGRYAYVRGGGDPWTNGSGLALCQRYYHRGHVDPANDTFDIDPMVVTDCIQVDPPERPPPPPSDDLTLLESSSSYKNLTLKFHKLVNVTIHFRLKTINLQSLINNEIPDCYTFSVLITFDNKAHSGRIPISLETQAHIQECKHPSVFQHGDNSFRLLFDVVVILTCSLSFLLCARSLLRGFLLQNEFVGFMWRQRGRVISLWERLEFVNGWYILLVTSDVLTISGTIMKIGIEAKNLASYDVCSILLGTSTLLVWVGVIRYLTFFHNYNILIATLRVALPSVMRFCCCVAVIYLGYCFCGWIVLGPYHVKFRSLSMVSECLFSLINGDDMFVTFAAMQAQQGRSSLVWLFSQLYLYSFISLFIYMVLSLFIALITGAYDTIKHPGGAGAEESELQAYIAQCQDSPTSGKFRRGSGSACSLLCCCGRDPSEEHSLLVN
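Calcium fluorescence in TRPML1-DL cells induced overnight with Tet: a 110 s read after compound pin addition, then a 110 s antagonist read after challenge with 54-4 at 4 uM final (EC80).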
D2 potentiator – human D2 receptor positive allosteric modulation; potentiation, % (no concentration beside the values); 360,000 compounds, 0.23% hits; DiscoveRx D2 beta-arrestin cells, luminescence, 90 min; 100% = 57 uM dopamine signal; P14416; active = potentiation of 50% or more; inconclusive = 30% to 50%; inactive = 30% or less;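 also: compound concentration not given in the record; tested on top of an EC20 dose of dopamine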
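D2 cells co-treated with compound plus 50 nM dopamine (EC20) for 90 min at 37 deg C to detect potentiation. Beta-arrestin recruitment was read as enzyme-fragment luminescence after 1 h at ambient temperature. Full response was set by 57 uM dopamine.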
TRPML1 ag – activates the human TRPML1 channel | TRPML1-expressing cells, Ca2+ dye fluorescence, FDSS; host cell line not named in the record; reference of the full effect not given here | 410,000 compounds, 0.12% hits | activation, % (no concentration beside the values) | Q9GZU1; in the data active = activation above about 50%; inconclusive = about 30% to 50%; inactive = below about 30%; also: 0% is about no effect; the text of the record puts the active cut at 80%
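Cells: TRPML1-DL, 1X Tet inducer, ~16 h at 37 degrees C/5% CO2. Dye: ABD Ca8 no-wash + quencher, 45-90 min RT. Read: 10 s baseline, compound add, 110 s agonist phase; 54-4 EC80 (4uM final), 110 s antagonist phase.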
* = called active by the depositor; ? = inconclusive; . = no result given; & = joins results of further samples; [ ] = remark or other dose.

Start of the data: the first four records (preview)
The line under a structure holds: PINK1 expr mod, Six1-Eya2 inh, D2 agonist, TRPML1 blocker, D2 potentiator, TRPML1 ag
> O=Cc1cn(CCOc2ccccc2F)c2ccccc12
→ 2.2%, -10, 15, ., -19, .
> O=C(NCCOc1ccccc1)C(=O)c1c[nH]c2ccccc12
→ 2.5%, -1, 0.0, -5, -7, 1.8
> COc1ccc2nc(C)cc(N/N=C/c3ccc(F)cc3)c2c1
→ -1.1%, -12, 3.6, 1, -14, -0.6
> COc1ccccc1N(CC(=O)NCCSc1ccccc1)S(=O)(=O)c1ccccc1
→ 2.3%, -1, -1.9, 22, 3, 2.5

The list itself, repeating the preview:
The line under a structure holds: PINK1 expr mod, Six1-Eya2 inh, D2 agonist, TRPML1 blocker, D2 potentiator, TRPML1 ag
> O=Cc1cn(CCOc2ccccc2F)c2ccccc12
→ 2.2%, -10, 15, ., -19, .
> O=C(NCCOc1ccccc1)C(=O)c1c[nH]c2ccccc12
→ 2.5%, -1, 0.0, -5, -7, 1.8
> COc1ccc2nc(C)cc(N/N=C/c3ccc(F)cc3)c2c1
→ -1.1%, -12, 3.6, 1, -14, -0.6
> COc1ccccc1N(CC(=O)NCCSc1ccccc1)S(=O)(=O)c1ccccc1
→ 2.3%, -1, -1.9, 22, 3, 2.5
> Cc1cccc(N(C)C(=O)c2cc(S(=O)(=O)N3CCc4ccccc43)cn2C)c1
→ 0.1%, -11, -5.7, -1, -3, 0.6
> Cc1cc2cc(CNC(=S)NC3CCCCC3)ccc2[nH]1
→ 3.5%, -16, -1.8, -5, -11, 0.3
> O=C(N/C=N/OCc1ccc(Cl)cc1Cl)NOCc1ncc(C(F)(F)F)cc1Cl
→ ?, 7, -1.0, 83, -22, -0.7
> Cc1cccc(-c2nc(CCNC(=O)COc3ccccc3)cs2)c1
→ -0.5%, ., ., -9, ., 2.2
> N#CC(c1ccc(Cl)nn1)c1c(F)cccc1Cl (configuration not stated)
→ -0.6%, 0, 2.4, 18, -4, -0.3
> O=C(c1ccc2c(c1)OCO2)N1CCN(c2ccc(C(F)(F)F)cn2)CC1
→ 0.2%, 6, 2.0, 11, 2, 1.5
> COCCOC(=O)c1c(NC(=O)COC(=O)c2ccc(C)o2)sc(C(N)=O)c1C
→ 1.3%, 1, -1.8, -9, -9, -1.6
> O=C(N/N=C/c1ccc([N+](=O)[O-])cc1)c1cccc2cc[nH]c12
→ 9.0%, 0, 7.0, 25, -5, -0.1
> CC(=O)c1cccc(NC(=O)Nc2ccc(C)cc2)c1
→ 2.0%, 5, -0.6, 13, 1, -0.8
> Cc1ccc(N(CC(=O)Nc2cccc(N(C)S(C)(=O)=O)c2)S(C)(=O)=O)cc1
→ -1.7%[38.3 µM], 1, -1.8, -10, -13, -0.8
> COc1cccc(-c2csc(N3CCN(C(=O)NC45CC6CC(CC(C6)C4)C5)CC3)n2)c1
→ -1.8%, -9, 0.7, 5, 4, 0.7
> COc1ccc(N2CCN(c3cc(C(=O)Nc4cc(OC)c(OC)c(OC)c4)ncn3)CC2)cc1OC
→ 8.3%, -27, 2.9, ., 6, -1.3
> NC(=O)C1CCCN1 (configuration not stated)
→ 3.1%, 3, -0.8, -8, -3, -0.5
> CCCCC1(C)OC(=O)C(=Cc2ccc(-c3ccc(Cl)c(C(=O)O)c3)o2)C(=O)O1 (configuration not stated)
→ 2.5%, -8, -0.3, 1, 8, 0.1
> O=C(c1ccc(COc2ccccc2[N+](=O)[O-])o1)N1CCCCC1
→ 8.3%[38.3 µM], 0, -2.2, 24, -9, 2.7
> Cc1cccc2cc(CN(CCN(C)C)C(=S)Nc3ccccc3)c(=O)[nH]c12
→ 0.5%, 0, 1.3, -1, -17, 0.2
> COc1ccc(S(=O)(=O)N2CCCCCC2)cc1C(=O)Nc1ccc(C)cn1
→ 2.3%, -2, 0.3, 12, -18, 1.0
> O=C(CSc1nnc(SCc2ccc(Cl)cc2)s1)N/N=C/c1ccccc1C(=O)O
→ -1.3%, -12, -0.4, 42, -11, 2.3
> CCCC1=C([O-])C2N=CC=CC2=[N+](c2ccccn2)C1=O (configuration not stated)
→ -0.9%, 6, 2.2, 7, -17, -0.2
> Cn1nc(C(=O)NCc2cccc(Cl)c2)c2c1-c1ccccc1SC2
→ 1.9%, ., ., 7, ., 0.0
> COc1cc(OC)cc(C(=O)N2CCCC(Nc3ccc(F)cc3)C2)c1 (configuration not stated)
→ -0.2%, -4, 0.6, -8, 7, -0.4
> Cc1cccc(C)c1NC(=O)CNC(=O)c1c(C)nn(C)c1Cl
→ 1.0%, -8, 2.8, 11, -3, -0.4
> COc1ccc(CN([C@H](C)CO)S(=O)(=O)N(Cc2ccccc2)[C@H](CO)C(C)C)cc1
→ 0.8%, -4, -0.6, -5, -4, -0.4&-0.1
> N#Cc1ccc(NC(=O)CSc2nc3[nH]c(=O)cc(O)c3s2)cc1
→ 0.3%, -1, -3.2, -12, -3, 0.1
> COc1ccc([N+](=O)[O-])cc1NC(=O)c1ccc(N2C(=O)CCC2=O)cc1
→ 0.0%, 8, -4.0, 9, -1, 0.7
> CC1CCC(NC(=O)C2COc3ccccc3O2)CC1 (configuration not stated)
→ 3.9%, 29, -8.4, -15, -9, -0.2

Some of these compounds in order of their number in Six1-Eya2 inh, smallest number first:
canonical_smiles | Six1-Eya2 inh
COc1ccc(N2CCN(c3cc(C(=O)Nc4cc(OC)c(OC)c(OC)c4)ncn3)CC2)cc1OC | -27
COc1cc(OC)cc(C(=O)N2CCCC(Nc3ccc(F)cc3)C2)c1 (configuration not stated) | -4
CC1CCC(NC(=O)C2COc3ccccc3O2)CC1 (configuration not stated) | 29

Whole records, quoted from the list.
Cn1nc(C(=O)NCc2cccc(Cl)c2)c2c1-c1ccccc1SC2 is listed with PINK1 expr mod = 1.9%; Six1-Eya2 inh = .; D2 agonist = .; TRPML1 blocker = 7; D2 potentiator = .; TRPML1 ag = 0.0
COc1ccc(N2CCN(c3cc(C(=O)Nc4cc(OC)c(OC)c(OC)c4)ncn3)CC2)cc1OC is listed with PINK1 expr mod = 8.3%; Six1-Eya2 inh = -27; D2 agonist = 2.9; TRPML1 blocker = .; D2 potentiator = 6; TRPML1 ag = -1.3

Further compounds follow:
The line under a structure holds: PINK1 expr mod, Six1-Eya2 inh, D2 agonist, TRPML1 blocker, D2 potentiator, TRPML1 ag
> N#Cc1c(C(F)(F)F)cc(-c2cccs2)nc1SC(C(=O)O)c1ccccc1 (configuration not stated)
→ -1.1%, 0, -2.4, -3, -3, 0.2
> CCOc1ccc(/C=C/c2nc(C#N)c(NCCc3ccccc3)o2)cc1
→ 6.4%, ., ., 3, ., -0.1
> Cc1noc(C)c1C(=O)NCCCN1CCCC1=O
→ 2.2%[38.3 µM], 4, -1.2, -4, -4, -0.1
> O=C(CN1C(=O)CSc2ccccc21)N1CCc2ccccc21
→ 2.1%[38.3 µM], 0, -1.6, -13, -3, 1.6
> COc1cc(/C=N/NC(=S)N/N=C/c2cc(OC)c(OC)c(OC)c2)cc(OC)c1OC
→ 17%, -21, 7.6, -6, 16, 1.6
> COc1ccc(C(=O)N2CCN(S(=O)(=O)c3ccc(Br)cc3)CC2)cc1
→ 0.4%, 0, 4.0, 12, 0, -0.1
> CCOC(=O)CN1C(=O)NC2NC(=O)NC21 (configuration not stated)
→ 2.9%, -1, -2.9, -5, -3, 0.0
> Cc1[nH]n(-c2ccccc2)c(=O)c1C(c1cccc([N+](=O)[O-])c1O)c1c(C)[nH]n(-c2ccccc2)c1=O
→ 12%, -27, -7.2, 5, -20, 0.2
> O=C(COC(=O)/C=C/c1ccco1)NCc1ccco1
→ 0.9%, -17, -0.1, 15, -2, 0.2
> Fc1cc(F)cc(NC(=S)NCCCN2CCOCC2)c1
→ 2.0%, 5, 2.2, -14, -2, 1.3
> O=c1c2cnn(-c3ccccc3)c2nnn1Cc1ccccn1
→ -1.8%, 0, -3.6, 23, -8, 2.1
> O=C(CCNS(=O)(=O)c1ccccc1)NNC(=O)COc1ccccc1F
→ -0.9%, 1, -5.2, -14, -2, 0.2
> COc1cc(OC)c(NC(=O)Nc2ccccc2OCc2cc(=O)n3cc(C)ccc3n2)cc1Cl
→ 1.4%, ., ., 7, ., -0.8
> CCc1ccc(OCC(=O)N/N=C(\C)c2ccccc2OC(F)F)cc1
→ 22%, -11, -3.5, 11, -31, 2.0
> O=C(CNCc1ccccc1)Nc1ccc(Oc2ccccc2)cc1
→ 6.4%, 5, -1.7, 26, -7, 4.0
> CCCCNC(=O)C(=O)c1ccccc1NC(C)=O
→ 1.0%, 4, -1.1, -13, -9, -0.2
> O=C1c2ccccc2S(=O)(=O)c2cc(C(=O)N3CCN(c4ncccn4)CC3)ccc21
→ 0.4%, 2, -0.3, 24, -6, -0.5
> Cc1ccc(C)c(N2CCN(S(=O)(=O)c3ccc4c(c3)CC(C)N4C(=O)C3CC3)CC2)c1 (configuration not stated)
→ -0.7%, -1, -3.2, -3, -9, -0.7
> O=C(O)c1cc(-c2ccc(/C=N/NC(=S)Nc3ccccc3)o2)ccc1Cl
→ -0.2%, ?, -5.7, 6, 6, 0.9
> CC(NC(=O)Nc1ccc(Cl)cc1)C1CCCO1 (configuration not stated)
→ 3.2%, -3, -1.7, 12, -4, 0.4
> COc1cccc(CCNC(=O)CC2C(=O)NCCN2Cc2ccc(C)o2)c1 (configuration not stated)
→ -0.6%, -4, 1.9, -13, -4, -0.2
> C=CCNC(=O)C1CCC(=O)N1S(=O)(=O)c1ccc(C)cc1 (configuration not stated)
→ -1.8%, 2, 4.9, -13, -4, 0.9
> CC(c1nnnn1C1CCCCC1)N(Cc1ccccc1)Cc1cccnc1 (configuration not stated)
→ 0.3%, -4, 2.2, 13, ?, -1.8
> C/C(=N/NC(=O)c1ccc(-c2ccccc2)cc1)c1cccc(O)c1
→ 0.0%, -3, -4.0, -5, 4, 0.0
> CCCCn1nnnc1C(c1ccccc1)N1CCN(c2ccc(C)cc2)CC1 (configuration not stated)
→ 0.2%, -21, ., ., ., ?
> O=C(NC1CCCCCCC1)NC1CCCCC1
→ -1.0%, 3, -0.8, 80, 1, -0.3
> CC(Sc1nc(NCc2ccccc2)nc(N2CCOCC2)n1)C(=O)Nc1ccccc1 (configuration not stated)
→ 11%, -1, -1.1, 10, -10, -0.1
> Cc1ccc(NC(=O)C2Cc3ccccc3CN2C(=O)c2ccco2)cc1S(=O)(=O)N(C)C (configuration not stated)
→ -1.0%, -10, 2.9, -8, -2, -0.2

Looked up above.
Value of `O=C1c2ccccc2S(=O)(=O)c2cc(C(=O)N3CCN(c4ncccn4)CC3)ccc21` in D2 potentiator: -6
Value of `Cc1[nH]n(-c2ccccc2)c(=O)c1C(c1cccc([N+](=O)[O-])c1O)c1c(C)[nH]n(-c2ccccc2)c1=O` in D2 agonist: -7.2
Value of `Fc1cc(F)cc(NC(=S)NCCCN2CCOCC2)c1` in TRPML1 blocker: -14
Value of `COc1cc(OC)c(NC(=O)Nc2ccccc2OCc2cc(=O)n3cc(C)ccc3n2)cc1Cl` in TRPML1 blocker: 7
